TRPML1 ag: human mucolipin-1 channel agonism; 410,000 tested, 0.12% active; TRPML1-expressing cells, Ca2+ dye fluorescence, FDSS; host cell line not named in the record; reference of the full effect not given here; Q9GZU1; activation, % (no concentration beside the values); in the data active = activation above about 50%; inconclusive = about 30% to 50%; inactive = below about 30%; also: 0% is about no effect; the text of the record puts the active cut at 80%
Target sequence (Q9GZU1 whole entry, looked up): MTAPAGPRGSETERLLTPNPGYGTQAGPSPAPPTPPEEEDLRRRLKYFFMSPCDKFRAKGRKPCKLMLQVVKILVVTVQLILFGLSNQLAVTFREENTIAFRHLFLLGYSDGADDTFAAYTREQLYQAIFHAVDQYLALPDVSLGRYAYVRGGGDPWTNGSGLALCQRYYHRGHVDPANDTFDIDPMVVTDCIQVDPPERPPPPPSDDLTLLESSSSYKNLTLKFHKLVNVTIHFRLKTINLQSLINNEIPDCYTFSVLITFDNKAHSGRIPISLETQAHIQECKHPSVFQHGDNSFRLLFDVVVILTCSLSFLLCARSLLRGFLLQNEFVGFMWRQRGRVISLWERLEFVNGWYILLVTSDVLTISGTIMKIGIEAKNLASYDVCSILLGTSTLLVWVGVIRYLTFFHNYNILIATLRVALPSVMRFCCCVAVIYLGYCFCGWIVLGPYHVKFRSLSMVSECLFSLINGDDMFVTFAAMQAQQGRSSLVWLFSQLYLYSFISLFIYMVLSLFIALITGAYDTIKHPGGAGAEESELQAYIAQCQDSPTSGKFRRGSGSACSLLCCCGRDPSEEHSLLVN
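In this qHTS format, compounds were pin-transferred onto Ca8-dye-loaded TRPML1-DL cells induced with Tet overnight, and intracellular Ca2+ fluorescence was recorded kinetically for 110 s after a 10 s baseline. A subsequent 4uM final 54-4 (EC80) addition followed by a second 110 s read served as the antagonist phase.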
D2 PAM: human D2 receptor positive allosteric modulation | DiscoveRx D2 beta-arrestin cells, luminescence, 90 min; 100% = 57 uM dopamine signal | potentiation, % (no concentration beside the values) | 360,000 tested, 0.23% active; active = potentiation of 50% or more; inconclusive = 30% to 50%; inactive = 30% or less;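 also: compound concentration not given in the record; tested on top of an EC20 dose of dopamine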
Target sequence (P14416 whole entry, looked up): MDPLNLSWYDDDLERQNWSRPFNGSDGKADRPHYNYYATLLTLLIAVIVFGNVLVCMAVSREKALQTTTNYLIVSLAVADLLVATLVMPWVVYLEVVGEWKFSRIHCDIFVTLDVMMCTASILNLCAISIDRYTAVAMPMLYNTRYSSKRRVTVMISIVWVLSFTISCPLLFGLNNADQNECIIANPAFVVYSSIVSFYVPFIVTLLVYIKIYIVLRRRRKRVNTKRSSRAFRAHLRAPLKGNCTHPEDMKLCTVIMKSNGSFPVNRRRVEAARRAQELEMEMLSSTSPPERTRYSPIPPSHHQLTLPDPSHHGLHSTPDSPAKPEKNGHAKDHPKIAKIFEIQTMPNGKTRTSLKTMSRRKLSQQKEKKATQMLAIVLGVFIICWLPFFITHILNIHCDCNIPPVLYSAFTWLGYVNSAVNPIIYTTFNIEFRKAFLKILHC
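D2 cells co-treated with compound plus 50 nM dopamine (EC20) for 90 min at 37 deg C to detect potentiation. Beta-arrestin recruitment was read as enzyme-fragment luminescence after 1 h at ambient temperature. Full response was set by 57 uM dopamine.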
D2 agonist: human D2 receptor agonism in beta-arrestin assay. DiscoveRx PathHunter D2 beta-arrestin, luminescence, 90 min; 100% = 57 uM dopamine signal. 360,000 tested, 0.084% active. activation, % (no concentration beside the values). P14416; in the data active = activation above about 40%; inconclusive = about 15% to 40%; inactive = below about 15%; also: compound concentration not given in the record; the text of the record calls up to 30% inactive
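Agonist mode: compounds alone added to overnight-plated D2 PathHunter cells for 90 min at 37 C, with 57 uM final dopamine (EC100) defining full response. Beta-arrestin recruitment detected by chemiluminescent reagent, read after 1 h at ambient temperature.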
CtBP-E1A inh: blocks the CtBP interaction with E1A; AID 651724; 340,000 tested, 0.49% active; activity change, % (test concentration not listed); AlphaScreen GST-E1A/His-CtBP binding, 1536-well; stronger effect = lower value; control for the full effect not named in the record; in the data active means activity change below about -65%; inconclusive means about -30% to -65%; inactive means above about -30%; also: % is scaled to controls: 0 for no effect and ±100 for the full control effect; compound concentration not given in the record
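Homogeneous bead-based format: GST-tagged E1A captured on glutathione donor beads, His-tagged CtBP on nickel acceptor beads; compounds precede bead addition by 2 h at 37 °C.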
Six1-Eya2 inh: blocks human Six1 binding to Eya2 | Q15475+O00167 | AlphaScreen GST-Six1/His-Eya2 binding, biochemical; stronger effect = lower value; control for the full effect not named in the record | activity change, % (test concentration not listed) | 360,000 tested, 0.56% active; in the data active = activity change below about -65%; inconclusive = about -30% to -65%; inactive = above about -30%; also: % is scaled to controls: 0 for no effect and ±100 for the full control effect; compound concentration not given in the record
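Homogeneous AlphaScreen proximity assay pairing GST-Six1 with His-tagged Eya2 (added as 5X mix: 250 nM and 500 nM) in 50 mM Tris pH 8.0, 300 mM NaCl, 1 mM TCEP. Glutathione donor and nickel acceptor beads; 1 h, 37 °C, dark.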
PINK1 modulator: changes PINK1 expression. PINK1 immunofluorescence, high-content cytometry, 24 h. AID 624263. Potency, µM (doses to about 76.6 µM), without a hit: top-dose activation (PINK1 increase), usual class: activators. 410,000 tested, 0.2% active; active = well fitted activation curve with a large enough effect; inconclusive = small, poorly fitted or top-dose-only effect; inactive = flat fitted curve, though single readings scatter; cell line not stated here;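 also: potency is read from the fitted curve at half-maximal effect; % of control where 0% means no effect; nearly all actives have a fitted effect of over 65% in size; a mitochondrial uncoupler was the plate control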
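Cells are seeded, rested 12 hours, then given compound at five concentrations or DMSO for 24 hours. After fixation, blocking and antibody staining, PINK1 amount and mitochondrial localization are scored; CCCP serves as control.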
The depositor's hits bear a star; ? = inconclusive; . = no result given; [ ] = remark or other dose. An excerpt; count on the stated rates, not on these rows.

| SMILES | TRPML1 ag | D2 PAM | D2 agonist | CtBP-E1A inh | Six1-Eya2 inh | PINK1 modulator |
| --- | --- | --- | --- | --- | --- | --- |
| COC1=C(OC)[C@]23CCc4ccc(OC)c(OC)c4[C@]2(CCN3C)CC1=O | 1.1 | -6.3 | -5.1 | -25.1 | -4.3 | -1.7% |
| COc1ccccc1CCNCc1cc2c(cc1[N+](=O)[O-])OCO2 | 0.0 | -10.5 | -0.3 | -11.7 | -5.9 | 1.2% |
| O=c1ccc2cc(O[C@@H]3O[C@@H](CO)[C@H](O)[C@@H](O)[C@@H]3O)c(O)cc2o1 | -0.1 | -5.2 | 9.1 | 9.0 | 7.9 | -1.0% |
| COc1ccc(C(C)=O)cc1CC(C(=O)c1ccc(C)cc1)N(C)C (stereo unspecified) | 0.2 | -2.6 | -2.4 | -13.9 | 0.0 | 2.7% |
| CC12CCC(O)CC1CCC1C2CCC2(C)C(C(=O)CC(O)C(F)(F)F)CCC12 (stereo unspecified) | 2.0 | -17.1 | -6.0 | 2.5 | 0.0 | 4.5% |
| COC(=O)Cn1cc(C=C2C(=O)N(C)C(=O)N(C)C2=O)c2ccccc21 | 1.0 | -21.6 | -0.8 | . | 6.0 | -1.1% |
| COc1cccc(CNC2CN3CCC2CC3)c1OC (stereo unspecified) | 0.8 | -12.1 | -1.7 | 2.5 | 8.0 | -0.9%[38.3 µM] |
| COc1ccc(NC(=O)c2c(C)nn(Cc3ccccc3Cl)c2Cl)cc1Cl | 1.2 | -6.2 | -5.3 | 0.3 | 10.2 | 8.0% |
| COc1ccc2c(CCN)c[nH]c2c1 | 0.0 | -14.8 | 0.2 | -0.6 | -6.7 | 0.0% |
| COc1ccc(C(c2nnnn2C2CCCCC2)N2CCC3(CC2)C(=O)NCN3c2ccccc2)cc1 (stereo unspecified) | -0.4 | -12.3 | -4.2 | -8.2 | -10.5 | 3.3% |
| O[C@@H]1CCCN2CCc3c([nH]c4ccccc34)[C@H]12 | 0.7 | -3.3 | 5.0 | -17.8 | -3.9 | -0.5% |
| Cc1ccc2c(c1)C1CN(C)CCC1N2C(=O)/C(C#N)=C/c1ccc2c(c1)OCO2 (stereo unspecified) | 0.5 | -5.5 | -1.5 | 0.9 | -1.9 | 5.3% |
| O=C(Nc1ccccc1)NC1CC2CCC(C1)N2 (stereo unspecified) | -0.3 | -14.3 | -4.1 | 5.8 | -1.8 | -0.6% |
| COc1cc(C=C2C(=O)NC(=O)NC2=O)ccc1OS(=O)(=O)c1ccccc1[N+](=O)[O-] | -0.3 | 2.8 | 3.7 | 2.1 | -5.5 | 6.8% |
| COc1ccc(N=Cc2c(O)n(CC3CCCO3)c(=O)[nH]c2=O)cc1 (stereo unspecified) | -0.1 | -3.7 | -1.8 | 0.0 | -0.2 | 2.3% |
| CCOc1ccc(-n2c(CC)nc3ccccc3c2=O)cc1 | -0.4 | 2.7 | -0.3 | 2.1 | -11.1 | 5.4% |
| Cc1cc(OC(=O)N(C)C)n(-c2ccccc2)n1 | 0.7 | -1.3 | -2.5 | -0.9 | 3.0 | 1.4% |
| COc1cc(CN2CCCC(C(=O)c3sccc3C)C2)cc(Cl)c1O (stereo unspecified) | -1.1 | -21.5 | -4.8 | -7.5 | -7.3 | 0.4% |
| CC(=O)N1CCC(N2CCCC(C(=O)c3cccc(Cl)c3)C2)CC1 (stereo unspecified) | 0.2 | 55.4* | 57.7* | 1.0 | 2.5 | -0.5% |
| O=C(c1cc2ccccn2n1)N1CCC2(CC1)OCCO2 | -0.3 | -2.7 | -2.0 | 0.5 | 3.0 | 5.5%[38.3 µM] |

Entries above containing sulfur (2):
| SMILES | TRPML1 ag | D2 PAM | D2 agonist | CtBP-E1A inh | Six1-Eya2 inh | PINK1 modulator |
| --- | --- | --- | --- | --- | --- | --- |
| COc1cc(C=C2C(=O)NC(=O)NC2=O)ccc1OS(=O)(=O)c1ccccc1[N+](=O)[O-] | -0.3 | 2.8 | 3.7 | 2.1 | -5.5 | 6.8% |
| COc1cc(CN2CCCC(C(=O)c3sccc3C)C2)cc(Cl)c1O (stereo unspecified) | -1.1 | -21.5 | -4.8 | -7.5 | -7.3 | 0.4% |

The list goes on:
| SMILES | TRPML1 ag | D2 PAM | D2 agonist | CtBP-E1A inh | Six1-Eya2 inh | PINK1 modulator |
| --- | --- | --- | --- | --- | --- | --- |
| Cc1nn(Cc2ccccc2)c(Cl)c1C(=O)NC1CCCc2ccccc21 (stereo unspecified) | 2.9 | -1.4 | -1.8 | 2.5 | 6.3 | -0.3% |
| CCc1ccc(N2C(=O)NC(=O)/C(=C/c3cccn3CCOc3ccc(C)cc3)C2=O)cc1 | -0.9 | -4.0 | 0.5 | 2.4 | -5.4 | ? |
| CC(C(N)=O)N1CC(c2ccccc2)CC1=O (stereo unspecified) | 0.5 | -11.7 | 1.2 | 2.2 | 10.2 | -0.4% |
| O=C(NC1CONC1=O)OCC(Cl)(Cl)Cl (stereo unspecified) | 0.3 | -5.3 | 1.1 | . | 9.5 | 2.5% |
| CC(=O)N1N=C2C3CCN(CC3)C2C1c1ccc(F)cc1 (stereo unspecified) | -1.2 | -10.8 | 1.8 | 1.1 | 4.1 | 1.6% |
| COc1ccccc1-n1c(O)c(C=NCCN2CCNCC2)c(=O)[nH]c1=O | 0.1 | -0.7 | -0.2 | -0.7 | 10.9 | 0.2% |
| CCOC(=O)c1c(C)n(C(C)C)c2ccc(OC)cc12 | 0.2 | -1.0 | 2.4 | 5.5 | -7.1 | 2.1% |
| CCOP(=S)(OCC)N1CCOCCOCCN(P(=S)(OCC)OCC)CCOCCOCC1 | 0.7 | -0.8 | 5.5 | 20.9 | 16.8 | 4.3% |
| Nc1c(C(=O)NC2CCCC2)c2nc3ccccc3nc2n1CC1CCCO1 (stereo unspecified) | -0.1 | -10.0 | -5.8 | 23.8 | 30.8 | -2.3% |
| C[n+]1c(-c2ccccc2)cc(-c2ccc(O)cc2)cc1-c1ccccc1 | 1.3 | -14.1 | -0.8 | 1.4 | 11.9 | 1.3% |
| Cc1cc(Cc2c(O)[nH]c(=S)[nH]c2=O)ccc1OC(C)C | . | -23.1 | -3.9 | . | 3.2 | 1.5% |
| Cc1cc(C(=O)Nc2ccc3c(c2)OCCO3)nn1C(C)(C)C | 1.4 | -9.6 | -3.4 | -13.8 | -5.9 | 0.4% |
| N#CC1c2ccccc2-n2nncc2CN1C(=O)c1ccccc1F (stereo unspecified) | -0.4 | 2.7 | -9.6 | 1.3 | 0.0 | 1.8% |
| CC1=[N+]([O-])C2(N)CCc3nonc3C2(O)C1 (stereo unspecified) | -0.4 | -9.3 | -2.6 | 5.0 | -0.2 | 4.9% |
| CCCNc1nc(OC)nc(N2CC3CC(C2)c2cccc(=O)n2C3)n1 (stereo unspecified) | 0.4 | -5.4 | 7.2 | -4.8 | -0.4 | 0.7% |
| O=C(c1ccccc1)C1NC1c1ccccc1 (stereo unspecified) | -0.3 | -2.3 | -0.6 | 0.9 | 3.8 | 1.4% |
| CCNCC1(c2ccc(OC)c(OC)c2)CCCC1 | -0.4 | -4.2 | -2.0 | -10.5 | -4.8 | -0.4% |
| CCOP(=O)(OCC)OCC | -0.2 | -22.3 | -1.4 | 4.0 | 5.9 | -0.5% |
| C=C[C@H]1CN2CC[C@H]1C[C@H]2[C@H](O)c1ccnc2ccccc12 | -0.5 | -7.2 | 5.5 | 2.3 | -3.5 | -0.3% |
| O=C(Nc1ccc2ccccc2c1)N1C[C@H]2C[C@@H](C1)c1cccc(=O)n1C2 | 0.7 | -0.1 | 1.3 | -11.6 | -10.8 | -1.2% |
| O=C(O)c1cn(Cc2ccccc2)nc1-c1ccccc1 | -0.2 | 0.3 | -0.8 | -2.4 | 8.3 | -0.1% |
| CC(=O)NCC1=C(c2cccc3ccccc23)C[C@@H]2CC[C@H]1N2Cc1ccco1 | 0.1 | -2.7 | -12.7 | -15.4 | -20.3 | 0.9% |
| COC(=O)C1=C(c2ccc(F)cc2OCc2ccccc2)C[C@@H]2CC[C@H]1N2C(=O)NCc1cccc(F)c1 | 2.2 | -15.1 | -4.0 | -8.4 | -0.4 | -0.6% |
| CCOc1ccc(-n2c(O)c(/C=C3\C=Nc4ccccc43)c(=O)[nH]c2=O)cc1 | 0.9 | -1.0 | -6.3 | 1.3 | -8.0 | -2.6% |
| CCOc1cc(CNCCc2c[nH]c3ccccc23)cc(Cl)c1OC | -0.8 | -7.2 | -3.9 | -1.5 | -17.0 | -0.7% |
| Cc1nn(Cc2ccccc2)c(Cl)c1C(=O)OC(C)C(=O)Nc1ccc(F)cc1Cl (stereo unspecified) | 2.3 | -13.3 | -2.1 | 3.9 | 7.7 | 15.0% |
| CCOc1c(Cl)cc(CNCCc2c[nH]c3ccccc23)cc1OC | -0.4 | -15.6 | -0.1 | . | -21.3 | -1.8% |
| CCCCn1c(=O)c(C(=O)NCCc2ccccc2)c(O)c2ccccc21 | 1.4 | -0.8 | -0.7 | 19.5 | 21.1 | ? |
| O=c1c2ccccc2nc(-c2ccccc2)n1-c1nccs1 | -0.1 | 0.2 | -4.2 | 15.3 | -18.5 | -1.3% |
| COC(=O)C1=C(c2ccc3ccccc3c2)C[C@@H]2CC[C@H]1N2C(=O)N1CCCCC1 | 0.3 | -8.6 | -6.3 | -6.2 | 0.6 | 2.0% |
| c1cncc(C2CCCCN2Cc2ccc3c(c2)OCO3)c1 (stereo unspecified) | 2.6 | -8.4 | -2.6 | -8.7 | 2.4 | 1.3%[38.3 µM] |
| Fc1cccc(C2NCc3ccccc3-n3cccc32)c1 (stereo unspecified) | 0.9 | -15.6 | -2.3 | -22.1 | -17.5 | 4.3% |
| COC(=O)C1=C(c2ccc(F)cc2F)C[C@@H]2CC[C@H]1N2C(=O)NCc1ccc(F)cc1 | 1.0 | -11.4 | -2.7 | . | 6.6 | 1.2% |
| COc1cc(C(CN)CC(=O)O)ccc1O (stereo unspecified) | -0.6 | -6.5 | -2.0 | . | 8.8 | 0.0% |
| O=C1NC(=O)N(c2ccccc2)C(=O)/C1=C/c1ccc(Sc2ccccc2)o1 | 2.7 | -6.1 | -1.9 | 1.4 | -4.4 | -3.0%[38.3 µM] |
| N#CC1(c2ccccc2)CCN(C2CC(=O)N(c3ccc4c(c3)OCO4)C2=O)CC1 (stereo unspecified) | 0.2 | -10.9 | -3.6 | . | 0.2 | 2.0% |
| COC(=O)C1=C(c2ccc(S(C)(=O)=O)cc2)C[C@@H]2CC[C@H]1N2C(=O)NCCCOC(C)C | -0.8 | -14.2 | -2.6 | -6.6 | -5.5 | -1.5% |
| CC(Cc1ccccc1)NCCC(=O)NC(C)Cc1ccccc1 (stereo unspecified) | 1.7 | -16.3 | -2.2 | . | 8.8 | -0.5% |
| COc1ccc(C(=O)Nc2cccc(S(=O)(=O)NCc3ccco3)c2)cc1 | -0.1 | 1.1 | 6.0 | -13.5 | -20.4 | -1.4% |
| O=c1[nH]c(=O)n(Cc2ccccc2)c(O)c1/C=C1\C=Nc2ccccc21 | 0.2 | -12.5 | 2.7 | . | 4.6 | 7.8% |
| Cn1c(O)c(C=Nc2cccc(C(F)(F)F)c2)c(=O)n(C)c1=O | -0.5 | 3.5 | -3.1 | 0.0 | 16.2 | 1.6% |
